From PubChem BioAssay
S aureus helic: S. aureus DNA helicase inhibition; actives 0.05% (n = 120,000); purified S. aureus helicase, fluorescence unwinding assay; about half of the hits fall short of the stated cut; inhibition, %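 (tested at about 80 µM)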;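 active = both duplicates at 50% or more, or one of them with a favoured structure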;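 note: 0% = mean of negative control wells and 100% = mean of positive control wells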
MgrA DNA FP: alters Staphylococcus aureus MgrA binding to DNA | fluorescence polarization | inhibition, %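 (about 10 µg/mL by stock and volumes)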 | actives 0.13% (n = 84,000);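 active = above 50% in either of two replicates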;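 note: 0% = protein plus DNA without compound and 100% = DNA alone without protein; higher means less MgrA bound to DNA so lower polarization; one replicate is shown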
Active calls of the source: *; . = not tested or not shown. Only part of the results is shown (hit frequency here may not be typical).

nr | SMILES | S aureus helic | MgrA DNA FP
1 | CC(=O)N1CCN(c2ccc(NC(=O)CSc3nc4ccccc4o3)cc2)CC1 | 12.0 | 4.8
2 | Nc1ccccc1SC(CC(=O)c1ccccc1)c1ccc([N+](=O)[O-])cc1 (stereo not drawn) | . | -2.8
3 | COc1ccc([C@H]2CC(=O)c3c(O)cc(O)cc3O2)cc1O | -16.0 | .
4 | CCN(CC)C(=O)Cn1cc(S(=O)(=O)CC(=O)N2CC(C)OC(C)C2)c2ccccc21 (stereo not drawn) | 4.0 | .
5 | COc1ccc(C(=O)NC(CO)(CO)CO)cc1OC | -1.0 | -1.0
6 | CCN(C(=O)Cn1nnc(-c2ccc(Cl)cc2)n1)C1CCS(=O)(=O)C1 (stereo not drawn) | -2.0 | .
7 | CCc1cnc(/N=C/NO)nc1-c1c(F)cccc1F | . | -1.9
8 | CN(C)CCCN1C(=O)CCCCc2sc3c(c21)CCCC3 | 1.0 | .
9 | O=C(NCc1ccc(-c2cccs2)s1)NC(=O)c1ccccc1 | . | -1.7
10 | CNC(=O)CCc1nc2ccccc2n(-c2ccc(OC)cc2)c1=O | -4.0 | .
11 | Cc1cc(SCc2ccccc2)n2ncnc2n1 | 10.0 | .
12 | Cc1cc(S(=O)(=O)NCc2nc(N)n(S(=O)(=O)c3ccc(F)c(C)c3)n2)ccc1F | -17.0 | .
13 | NC(=O)c1ccccc1OCc1cc2c(cc1Br)OCO2 | 1.0 | .
14 | c1ccc(Cn2c3ccccc3n3nc(-c4ccccc4)nc23)cc1 | 11.0 | 0.3
15 | O=C(OCc1cc(Cl)c2c(c1)OCCO2)C12CC3CC(CC(O)(C3)C1)C2 | -16.0 | .
16 | O=C(CC1SC(N2CCCC2)=NC1=O)Nc1ccc(C(=O)N2CCN(c3ccccn3)CC2)cc1 (stereo not drawn) | 5.0 | .
17 | CC(C)(C)Nc1nc(Oc2ccc(=O)n(-c3ccccc3)n2)nc(N2CCOCC2)n1 | 12.0 | .
18 | CC1CCCCN1C(=O)c1cc(-c2ccccc2O)on1 (stereo not drawn) | 10.0 | .
19 | O=C1c2ccccc2-c2nn(C(=O)c3ccco3)c3cccc1c23 | -1.0 | -1.5
20 | C=C(C)C(=O)Nc1ccccc1 | . | 2.2
21 | COC(=O)C1=C(N)N(c2ccc(C)cc2)C2=C(C(=O)CCC2)C1c1ccc(OC)cc1 (stereo not drawn) | 10.0 | -2.7
22 | O=C(O)CCc1nn2c3ccccc3nc2n(CCN2CCCCC2)c1=O | 11.0 | .
23 | Cc1cc(C)nc(SCC(=O)NN)n1 | 11.0 | -1.4
24 | COC(=O)c1cccc(NC(=O)C2CC2)c1 | . | -2.1
25 | O=C(O)CC1=C(c2ccccc2)CCC1=O | 8.0 | .
26 | CCn1c(=NC(=O)C2CC2)sc2cc(Cl)ccc21 | -13.0 | .
27 | O=c1[nH]c2ccc(Cl)cc2c(=O)n1Cc1ccccc1 | 3.0 | -3.6
28 | CCCCOC(=O)c1ccc2c3c(onc13)-c1ccccc1C2=O | -1.0 | 29.2
29 | CCN1CCc2c(OC)cccc2C1=O | 4.0 | .
30 | O=C1C(O)=C(Cc2ccccc2)CN1Cc1ccccc1 | -4.0 | 0.1
31 | COc1ccccc1NC(=O)/C=N/OCc1nc2sc(C)c(C)c2c(=O)[nH]1 | 25.0 | .
32 | O=C(c1ccc(COCC(F)(F)F)cc1)N1CCCC1 | 14.0 | .
33 | CCN(C(=O)CN1C(=O)c2ccccc2S1(=O)=O)c1cccc2ccccc12 | -16.0 | 0.4
34 | Cc1nccn1CC(=O)N1c2ccccc2Sc2ccccc21 | 6.0 | .
35 | CC1CCC(NS(=O)(=O)c2cccc(C(F)(F)F)c2)CC1 (stereo not drawn) | 11.0 | .
36 | CC(C)CC(=O)N/C(N)=N/c1nc2ccccc2o1 | -20.0 | .
37 | O=C1CCC/C1=C1\SCC(=O)N1c1ccccc1 | 9.0 | -0.1
38 | O=C1Nc2ccc(Br)cc2C1(O)Cc1ccncc1 (stereo not drawn) | 1.0 | -1.4
39 | COc1ccc(CN(C)C2CCCCC2)c(C)c1C | 2.0 | -0.3
40 | N/C(CSc1cccs1)=N\O | . | 3.6
41 | Cc1cc(C(=O)Nc2sc3c(c2C#N)CCC3)no1 | 0.0 | .
42 | C=CCN1C(=O)c2ccc(C(=O)O)cc2C1=O | 13.0 | .
43 | NCC(c1ccc[nH]1)C(F)(F)F (stereo not drawn) | . | -1.9
44 | O=C(COC(=O)c1ccc(S(=O)(=O)NCc2ccco2)cc1)NC1CCCCCC1 | -12.0 | .
45 | COc1ccc(C(=O)Nc2sc3c(c2C#N)CCC3)cc1OC | -17.0 | .
46 | CCOc1ccc(CC(=O)NCCn2c(C)cc3ccccc32)cc1 | 2.0 | 2.2
47 | O=C(COC(=O)C1CCN(S(=O)(=O)c2ccc3ccccc3c2)CC1)c1ccccc1 | -21.0 | .
48 | O=C1Nc2ccccc2/C1=c1/sc2n(c1=O)CN(c1ccccc1)CN=2 | 1.0 | .
49 | CC1(C)CC(=O)C(C(NC(=O)c2ccccc2)(C(F)(F)F)C(F)(F)F)=C(O)C1 | -5.0 | -0.4
50 | COc1ccc2oc(=O)c(C(=O)N(C)Cc3cccnc3)cc2c1 | 11.0 | 1.1
51 | Cc1ccc2[nH]c3c(c2c1)CN(Cc1ccccc1)CC3 | 11.0 | .
52 | CC(C)NC(=O)Oc1cccc(Cl)c1 | . | -0.9
53 | COc1ccc(C(C#N)=C(SC)SC)cc1 | . | -1.1
54 | CCCNc1cc(C)oc(=O)c1C(=O)CCC | . | -1.8
55 | OCCSc1nc2ccccc2n1Cc1ccccc1 | 6.0 | 0.9
56 | COC(=O)c1c(NC(=O)Nc2ccccc2)sc2c1CCCC2 | 8.0 | 2.8

(next part)
nr | SMILES | S aureus helic | MgrA DNA FP
57 | CC(C)CNc1nnnc2c1sc1nc(N3CCOCC3)c3c(c12)CCCC3 | 11.0 | .
58 | N#C/C(=C\c1ccccc1OC(F)F)C(=O)O | 9.0 | .
59 | CC1=C(C(=O)OCCc2ccccc2)C(c2ccc(C(F)(F)F)cc2)NC(=O)N1C (stereo not drawn) | . | 3.9
60 | CCCSc1nnc(CSc2ncccn2)n1-c1ccccc1 | 16.0 | .
61 | CCn1cc(C(C)NC(=O)Nc2ccccc2C(=O)OC)c(C)n1 (stereo not drawn) | 9.0 | -3.3
62 | CCCc1nc2c3ccccc3nc(=S)n2[nH]1 | -18.0 | .
63 | CCOC(=O)c1c(C)n(-c2ccccc2)c2ccc(OC(=O)c3ccc(S(=O)(=O)N(C)C)cc3)cc12 | . | -1.0
64 | CC1(C)CC(=O)c2c(ncc3c2CC(C)(C)CC3=O)C1 | 6.0 | -1.6
65 | CC1CCCC(NC(=O)c2ccc(N3CCCC3=O)cc2)C1C (stereo not drawn) | 14.0 | -1.6
66 | N#CC1=C(N)Oc2ccc(Cl)cc2C1C(C#N)C#N (stereo not drawn) | . | -0.5
67 | O=C(Cn1ccnc1)c1ccc(Cl)cc1Cl | -12.0 | .
68 | FC(F)(F)c1cccc(Nc2ncnc3ccccc23)c1 | 22.0 | .
69 | CC1=C(C(=O)OC2CCCC(C)C2)C(c2ccccc2Cl)NC(=O)N1C (stereo not drawn) | 5.0 | -2.8
70 | CCCCN(CC)c1ncnc2sc3c(c12)CCC3 | 2.0 | .
71 | CCCOC(=O)CSC1=C(C#N)C(c2ccccc2C)C(C#N)C(=O)N1 (stereo not drawn) | -36.0 | .
72 | O=C1C(c2ccc(F)cc2)N(C2CCCC2)C(=O)CN1C1CCCC1 (stereo not drawn) | 0.0 | .
73 | Cc1cc(=O)n2ccccc2n1 | -14.0 | .
74 | CC(C)(C)OC(=O)N1CCCC[C@@H]1C(=O)O | . | -0.1
75 | O=C(CC1=NC(c2ccccc2O)ON1)N1CCCC1 (stereo not drawn) | . | -0.4
76 | CCN(CC)c1nc(OCCNC(=O)Nc2ccccc2)nc(N(CC)CC)n1 | -27.0 | .
77 | COc1cccc(/C=C2/Oc3ccccc3N(CC(=O)NCC3CCCO3)C2=O)c1 (stereo not drawn) | 17.0 | 4.2
78 | C=CCN(CC=C)S(=O)(=O)c1ccc(C(=O)O)cc1 | 12.0 | .
79 | Cc1onc(-c2ccccc2)c1-c1ccc(S(N)(=O)=O)cc1 | . | 1.8
80 | O=C(NCCO)Nc1ccccc1 | 21.0 | .

Reformatted: entries from further up.
73: Cc1cc(=O)n2ccccc2n1
  S aureus helic = -14.0; MgrA DNA FP = .

74: CC(C)(C)OC(=O)N1CCCC[C@@H]1C(=O)O
  S aureus helic = .; MgrA DNA FP = -0.1

75: O=C(CC1=NC(c2ccccc2O)ON1)N1CCCC1 (stereo not drawn)
  S aureus helic = .; MgrA DNA FP = -0.4

(next part)
nr | SMILES | S aureus helic | MgrA DNA FP
81 | O=C1COc2ccccc2C(=O)N1 | . | -2.3
82 | Clc1ccc(-c2noc3ncnc(NCCCN4CCCC4)c23)cc1 | -14.0 | .
83 | O=C1c2ccccc2NC(c2ccccc2Cl)N1c1ccc(F)cc1 (stereo not drawn) | 1.0 | 0.0
84 | Cc1ccc(C)c(NC(=O)CN(C)C(=O)CSc2nnc(-c3ccc(Cl)cc3)o2)c1 | 4.0 | .
85 | CN(C)c1ccc(C(=O)OCc2ccccc2)cc1 | 7.0 | 0.7
86 | Cc1c(C)n(Cc2ccccc2)c2ncnc(N)c12 | 19.0 | .
87 | O=C(C1=COCCO1)N1CCN(S(=O)(=O)c2cccc(Cl)c2Cl)CC1 | -6.0 | .
88 | Cc1ccc(NC(=O)N/C(=N/O)c2ccc(NC(=O)C3CC3)cc2)cc1Cl | 17.0 | .
89 | O=C(CN1CCN(C(=O)CN2C(=O)C3CC=CCC3C2=O)CC1)Nc1ccc(Cl)c(C(F)(F)F)c1 (stereo not drawn) | -11.0 | .
90 | Cc1cccc(C)c1NC(=O)N(Cc1ccccc1)C(=O)CC#N | . | 0.2
91 | CCOC(=O)c1sc(SC)c(C(C)O)c1C (stereo not drawn) | . | 0.7
92 | CC(O)c1nc2ccccc2n1CCC1CCCCC1 (stereo not drawn) | 0.0 | .
93 | O=C(NCCCN1CCOCC1)c1nc(-c2ccc(F)cc2)no1 | 9.0 | -1.2
94 | O=C1C2C3C=CC(O3)C2C(=O)N1O (stereo not drawn) | . | -0.8
95 | O=C1CC(C(=O)NCc2ccccc2)N=C(N2CCCCC2)N1 (stereo not drawn) | 4.0 | 15.0
96 | COC(=O)CCSC1CC(=O)N(c2ccccc2)C1=O (stereo not drawn) | -4.0 | -3.5
97 | COc1cccc(NS(=O)(=O)c2ccc3[nH]cc(C(=O)N4CCCCC4)c(=O)c3c2)c1 | 13.0 | .
98 | Cc1ccc(N2C(=O)CC2(C(=O)NC2CCCCC2)c2cccs2)cc1 (stereo not drawn) | 10.0 | 2.0
99 | O=C(/C=C/c1ccc2ccccc2n1)OCC(=O)c1ccc2c(c1)OCO2 | -36.0 | .
100 | NC(=O)c1cc(Cl)c(Cl)cc1C(N)=O | . | -1.4
101 | COC(=O)CNC(=O)c1cccc(S(=O)(=O)NCc2ccccc2)c1 | 2.0 | .
102 | O=C1CCN(C(=O)c2ccc(C(=O)c3ccccc3)cc2)CC1 | 14.0 | .
103 | COc1ccc(CN2C(=O)c3ccccc3C2=O)cc1 | 16.0 | -1.7
104 | CCOC(=O)C1=C(C)N=c2s/c(=C3\C(=O)N(C)c4ccccc43)c(=O)n2C1c1ccc(OC)c(OC)c1 (stereo not drawn) | . | -1.8

Three entries already listed, arranged by SMILES length, smallest number first.
nr | SMILES | S aureus helic | MgrA DNA FP
98 | Cc1ccc(N2C(=O)CC2(C(=O)NC2CCCCC2)c2cccs2)cc1 (stereo not drawn) | 10.0 | 2.0
99 | O=C(/C=C/c1ccc2ccccc2n1)OCC(=O)c1ccc2c(c1)OCO2 | -36.0 | .
104 | CCOC(=O)C1=C(C)N=c2s/c(=C3\C(=O)N(C)c4ccccc43)c(=O)n2C1c1ccc(OC)c(OC)c1 (stereo not drawn) | . | -1.8

Remaining list, next part
nr | SMILES | S aureus helic | MgrA DNA FP
105 | COc1ccccc1C1/C(=C(\O)c2cc(C)ccc2C)C(=O)C(=O)N1CCCN(C)C (stereo not drawn) | 5.0 | -0.8
106 | Cn1nc(-c2ccccc2)cc1NC(=O)CCCC(=O)O | . | -1.1
107 | CSc1nc2ccsc2c(=O)[nH]1 | . | 4.6
108 | Cc1nn(CC(=O)Oc2ccc(Cl)cc2)c(C)c1Cl | -5.0 | -0.9
109 | CC1CC(Nc2ccccc2)c2ccccc2N1C(=O)COc1ccc2ccccc2c1 (stereo not drawn) | . | 2.5
110 | C=C1C(=O)OC2CC1C(OC(C)=O)C/C(C)=C/CC/C(C)=C/CC[C@]2(C)O (stereo partly drawn) | . | -2.4
111 | c1ccc(N2CCN(Cc3cn4cccnc4n3)CC2)cc1 | 3.0 | .
112 | O=C(O)Cn1c(SCCOc2ccccc2F)nc2ccccc21 | . | -2.4
113 | CCOC(=O)c1ccc(NC(=O)CSC(=S)N2CCOCC2)cc1 | 2.0 | .
114 | CC(C)C(C1=C(O)CC(C)(C)CC1=O)C1C(=O)CC(C)(C)CC1=O (stereo not drawn) | 1.0 | -2.2
115 | N=Cc1c(O)n(-c2ccccc2)c2ccccc12 | -2.0 | 4.8
116 | CCCc1cc(=O)oc2cc(OCn3nnc4ccccc4c3=O)ccc12 | 2.0 | .
117 | CN(C)c1ccc(CNC(=O)c2nccn2Cc2ccc(Cl)cc2)cc1 | -5.0 | .
118 | O=C(NC1CCCC1)C(c1ccccc1)N(C(=O)c1ccco1)C1CCCC1 (stereo not drawn) | 17.0 | -1.4
119 | NC(=O)N/C(CSCc1c(F)cccc1Cl)=N/O | 7.0 | .
120 | O=C(O)C1N(Cc2ccccc2)CCCN1Cc1ccccc1 | 4.0 | 6.3
121 | CCOC(=O)c1cnc2ccccc2c1NCCO | 12.0 | -1.4
122 | Cc1onc(-c2ccccc2Cl)c1C(=O)NCCc1ccncc1 | . | 0.0

Among those listed so far, these have bromine.
nr | SMILES | S aureus helic | MgrA DNA FP
13 | NC(=O)c1ccccc1OCc1cc2c(cc1Br)OCO2 | 1.0 | .
38 | O=C1Nc2ccc(Br)cc2C1(O)Cc1ccncc1 (stereo not drawn) | 1.0 | -1.4
